Screening results deposited in PubChem by several laboratories.
26S disassembly: inhibitors of ATP-driven 26S proteasome dissociation, primary screen, biochemical, bead-based flow cytometry, GFP-tagged proteasome; anti-FLAG beads, GFP-proteasome disassembly; hit rate 0.2% among 24,000; AID 751, 2007; inhibition of disassembly, % (concentration not given with the values);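 active = above 40%; inconclusive = likely self-fluorescent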;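 also: plate controls were ATP control with full disassembly for no effect and ATP-gamma-S intact proteasomes for full effect; higher percent means more bead fluorescence retained so stronger block of disassembly; stock transfer was 100 nL into about 10 µL; wells with too few beads may also be inconclusive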
VCAM-1 up: enhancers of VCAM-1 display on endothelial cells, cell-based, plate reader, pooled HUVEC, TNFa stimulus (AID 455). augmentation, % at 5 µM. HUVEC TNFa-induced VCAM-1 immunofluorescence, plate reader; numbers were filed only for top-ranked candidate wells. hit rate 0.2% among 10,000;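 active = a compound raising TNF-alpha-driven VCAM-1 surface staining, with its hit status upheld on visual or statistical review; inactive = the rest, including hits rejected on review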;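 also: 0% = TNFa with vehicle and 100% = strongest image-checked hit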
* = called active by the depositor; i = inactive; ? = inconclusive; nt = no result given. Only part of the results is shown. The share of hits here may be higher or lower than overall.

26S disassembly	VCAM-1 up	SMILES
-2.2	nt	O=C(NCc1cccnc1)C1CC(c2ccc(F)cc2)=NO1 (stereo unspecified)
1.4	nt	Cc1ccc(-n2c(C)nc3c(cnn3-c3ccc(F)cc3)c2=O)cc1C
0.0	nt	COC(=O)Nc1ccc(S(=O)(=O)Nc2ccccc2F)cc1
1.5	i	Cc1ccc(C(=O)Nc2ccc3c(c2)OCO3)o1
1.8	i	N#CCCN(Cc1cccnc1)C(=O)Nc1ccc(Cl)c(Cl)c1
-0.7	nt	COC(=O)c1nc2n(n1)C(c1ccc(OC)c(OC)c1OC)C1=C(CCCC1=O)N2 (stereo unspecified)
0.7	nt	CC(CCc1ccccc1)NC(=O)C1CCN(C(=O)c2sccc2-n2cccc2)CC1 (stereo unspecified)
0.9	nt	CC1(C)OC(=O)C(C(c2ccccc2)C(C#N)C(N)=O)=C(O)O1 (stereo unspecified)
-0.2	i	O=C(Cn1cc2c(n1)CCCC2)NCCc1ccccc1
?	i	Cc1ccccc1Nc1nc(N)nc(CSCc2c(C)noc2C)n1
14	i	CC1(C)Cc2c(sc3c2C2=NCCN2C=N3)CO1
-0.1	nt	CC(=O)Nc1ccc2[nH]c3ccccc3c2c1
0.3	nt	O=C1NCCN1C(=O)c1ccco1
1.7	i	COC(=O)/C=c1/s/c(=C(/C#N)C(=O)N2CCOCC2)n(-c2ccccc2)c1=O
0.7	nt	NC(=O)c1sc(=S)n(-c2ccc(Br)cc2)c1N
1.0	nt	CCC1(C)OC(=O)N2CCc3c(C)[nH]c4c(C)ccc(c34)C21C (stereo unspecified)
-0.6	nt	CCOC(=O)N1CCC(N2CC34C=CC(O3)C(C(=O)Nc3ccc(C(C)C)cc3)C4C2=O)CC1 (stereo unspecified)
-3.9	nt	Cc1cc(S(=O)(=O)NCc2ccco2)c(C)s1
0.6	i	CCc1nnc(NC(=O)c2ccc(COc3ccc(C)cc3)o2)s1
10	i	CCOc1ccc2[nH]c(=O)c(C(c3nnnn3Cc3ccco3)N3CCC(C)CC3)cc2c1 (stereo unspecified)
1.3	nt	CCOc1ccc(CCNC(=O)CN(C)S(=O)(=O)c2ccc3c(c2)CCC(=O)N3)cc1OCC
0.2	nt	CCOC(=O)c1nnn(-c2nonc2N)c1CNc1ccccc1
0.1	nt	CCOC(=O)N1CCN(Cc2nc3c(c(=O)[nH]c(=O)n3C)n2Cc2ccccc2C)CC1
0.3	nt	CNC(=O)Cn1ncc2c(C)n(Cc3ccc(C)cc3)c(C)c2c1=O
6.1	nt	CCCN1Cc2cccc(C(=O)Nc3ccc(N4CCN(CC)CC4)cc3)c2C1=O
-0.2	i	Cn1c2c(c(=O)n(C)c1=O)C(NC(=O)C(C)(C)C)(C(F)(F)F)C(=O)N2 (stereo unspecified)
-0.2	i	COc1ccc(N(CC(=O)O)S(=O)(=O)c2ccc(OC)c(OC)c2)cc1
?	i	COc1ccc2c(CC(=O)Nc3nnc(C4CC4)s3)coc2c1
-0.4	nt	CN(C(=O)CSc1nc(N)nn1-c1ccccc1)c1ccccc1
0.7	nt	COc1cccc(NC(=O)CSc2nnc(Cn3c(=O)sc4ccccc43)n2C)c1
-1.8	nt	Cn1c(=O)cc(OCC(=O)NCc2cccnc2)c2ccccc21
3.0	i	O=S(=O)(NCCc1csc(-c2ccccc2)n1)c1ccc2c(c1)OCCO2
-4.4	i	CCOC(=O)CSc1nnc(CCc2nc3ccccc3[nH]2)n1C
-0.4	nt	CN(C)c1ccc(C(=O)N2CC(=O)N(CCc3ccccc3)C(=O)C2)cc1
2.2	nt	O=C(NCc1ccco1)c1scc2c1OCCO2
-2.0	nt	O=c1[nH]c(-c2ccccc2)c(-c2ccccc2)[nH]1
-1.2	i	O=C(CSc1nnc(-c2cccnc2)o1)OC1CCCCC1
-1.9	nt	Cc1ccc(C)c(CN2CCNC2=O)c1
-0.8	nt	CC(=O)N1CCc2cc(S(=O)(=O)NCCC(=O)Nc3cccc(C)c3C)ccc21
-1.1	nt	O=C(NCC1CCCO1)c1ccc(CS(=O)(=O)c2ccc(Br)cc2)o1 (stereo unspecified)
-1.8	nt	CCOC(=O)c1oc2ccccc2c1NC(=O)c1ccccc1OC
0.8	nt	Cc1ccc(S(=O)(=O)N(CC(O)CN2CCCCC2)c2ccccc2)cc1 (stereo unspecified)
-1.5	nt	Cc1ccc(NC(=O)Cc2nn(C)c(=O)c3ccccc23)cc1F
1.5	i	COc1ccccc1Nc1nc(N)nc(-c2cc3ccccc3o2)n1
4.3	i	CC(N)C12CC3CC(C1)CC(C(C)N)(C3)C2 (stereo unspecified)
3.3	nt	COc1cccc(CNC(=O)C2CCN(S(=O)(=O)c3cccc4cccnc34)CC2)c1
0.0	nt	CCOC(=O)c1ccccc1NC(=O)Cn1cnc2c(cnn2C(C)(C)C)c1=O
1.5	nt	CCN(C(=O)CCS(=O)(=O)c1ccc(Br)cc1)c1ccc2c(c1)OCO2
0.3	i	COc1ccc(-n2c(SCCC(=O)O)nnc2-c2ccncc2)cc1
-1.7	nt	CC(Sc1nnc(Cn2c(=O)sc3ccccc32)n1C)c1ccccc1 (stereo unspecified)
-0.4	nt	CC1Cc2ccccc2N1C(=O)Cn1c(=O)oc2cc(S(=O)(=O)NC3CCCC3)ccc21 (stereo unspecified)
2.3	nt	CN(CC(=O)NC1CCCCCCC1)S(=O)(=O)c1cccc2cccnc12
-0.3	nt	CCOc1ccc(CNC(=O)C2CCN(S(=O)(=O)CC)CC2)cc1OC
-1.8	nt	CCc1cccc(OCC(=O)Nc2ccc(S(=O)(=O)Nc3onc(C)c3C)cc2)c1
0.2	nt	COc1ccccc1NC(=O)CN1CCN(CC(=O)Nc2cc(NC(C)=O)ccc2OC)CC1
0.6	nt	Cc1ccc2c(c1)c(-c1ccccc1)nc1nncn12
1.9	nt	CC(=O)Nc1ccc(N2C(=O)CSC2c2ccc(F)cc2)cc1 (stereo unspecified)
13	i	Cc1cccc(OCC(=O)Nc2ccc(N3CCCC3)cc2)c1C
-1.8	nt	O=C(CSc1nc2ccccc2c2nc3ccccc3n12)NCc1ccco1
0.8	i	C=C1[C@@H](C)C2[C@H](Cc3ccccc3)NC(=O)[C@]23OC(=O)CC[C@H](O)CCC[C@H](C)C/C=C/[C@H]3[C@@H]1O (stereo partly specified)

Further entries:
26S disassembly	VCAM-1 up	SMILES
-1.0	nt	CCOC(=O)C(Cc1ccccc1)NC(=O)Cn1nnc(-c2ccccc2)n1 (stereo unspecified)
0.0	nt	O=C(NCCC1=CCCCC1)C1CCCN(S(=O)(=O)c2cccc3cccnc23)C1 (stereo unspecified)
-0.5	nt	O=C(Cn1nc(Cc2cccnc2)c2ccccc2c1=O)N1CCN(C(=O)c2ccco2)CC1
0.3	nt	CSc1ccc(-c2nnn(Cc3ccccn3)n2)cc1
1.3	i	CCCn1c2ccccc2c2nnc(SCC(=O)OCC)nc21
-0.9	i	COC(=O)C1=C(C)NC(C)=C(C(=O)OC)C1c1cc2cc(C)ccc2[nH]c1=O
-2.1	i	Cc1nc2cc(-n3ccc(=O)cc3)ccc2n1-c1ccccc1
-1.1	nt	COc1ccccc1-c1cc(C(=O)Nc2cc(C)on2)no1
0.6	nt	CCn1c2ccccc2c2nc3cc(OC)c(OC)cc3nc21
1.6	nt	COc1ccc(S(=O)(=O)NCCCCCC(=O)NCCCN2CCOCC2)cc1
2.7	i	CCN(c1cccc(C(F)(F)F)c1)S(=O)(=O)c1ccc2c(c1)CCN2C(=O)C1CC1
0.7	nt	CC(C)(C)c1nnc(NC(=O)CN2C(=O)C3C4C=CC(C4)C3C2=O)s1 (stereo unspecified)
-0.7	i	COc1cc(CC(=O)Oc2ccc3c(c2)OCO3)cc(OC)c1OC
-2.9	nt	CCn1cc(Cl)c(C(=O)Nc2nc3ccccc3n2CCN2CCCCC2)n1
0.4	nt	CCC(C)(C(=O)Nc1ccc2c(c1)OCCO2)N(C(C)=O)c1ccc(C(N)=O)cc1 (stereo unspecified)
0.3	i	O=C(CCN1C(=O)C2C3C=CC(C3)C2C1=O)N1CCN(c2ccccc2Cl)CC1 (stereo unspecified)
2.4	nt	CC1=C(C(N)=O)C(c2cccc(OCc3ccccc3)c2)n2nnnc2N1 (stereo unspecified)
0.1	i	Cc1cccc(-n2ncc3c(N)ncnc32)c1
-1.4	i	CCOc1ccc(CCNC(=O)CCc2nc(-c3ccc(OC)cc3)no2)cc1OCC
0.1	nt	Cc1ccc(CCNC(=O)c2nnn(-c3cccc(C)c3)c2N)cc1
0.2	i	O=C1CC(c2ccco2)CC(O)=C1C=NCCN1CCNCC1 (stereo unspecified)
0.5	nt	Nc1cc(OC(=O)c2cccs2)nn1S(=O)(=O)c1ccc(F)cc1
1.6	nt	COc1ccc(Cl)cc1N1C(=O)C2CCCN2C1c1ccc(F)cc1 (stereo unspecified)
1.7	i	O=C(C1CCC1)N1CCc2cc(S(=O)(=O)Nc3ccc4c(c3)OCO4)ccc21
-0.5	nt	O=C(CCNC(=O)Cn1ccc2ccccc2c1=O)NCCCN1CCN(c2ccccc2F)CC1
-3.9	nt	COc1ccc(Nc2cc(C)nc3nc(C)nn23)cc1Cl
1.5	i	COC(=O)Cc1c(C)c2ccc(OCC(=O)N3CCOCC3)cc2oc1=O
0.6	nt	O=C(NCCN1CCN(c2ccccc2F)CC1)c1cccn2c(=O)c3ccccc3nc12
2.0	nt	COc1ccc(CNC(=O)c2cc(-c3ccco3)on2)cc1
14	nt	CN(C1CCCCC1)S(=O)(=O)c1ccc2c(c1)c(=O)c(C(=O)NCCN1CCCC1)cn2C
-0.2	i	N=c1sc2ccccc2n1-c1ccccc1
0.3	i	COc1nc(C)ccc1-c1noc(-c2ccncc2)n1
0.7	nt	COc1cc2c(=O)n(-c3ccc(C)cc3)c(=O)n(CC(=O)c3ccc4c(c3)OCO4)c2cc1OC
-1.1	i	COCCn1c(SCC(=O)Nc2nnc(C)s2)nnc1-c1c[nH]c2ccccc12
0.2	nt	CC(CN(C)Cc1ccccc1)OC(=O)C1COc2ccccc2O1 (stereo unspecified)
-4.3	i	Cc1nnc(SCC(=O)NCc2ccc3c(c2)OCO3)s1
2.2	i	CC(C)c1ccc(NC(=O)CCNS(=O)(=O)c2cccc3nonc23)cc1
-0.2	nt	CCOc1ccc(-n2c(Cc3cc(=O)[nH]c(=O)[nH]3)nnc2SC(C)C)cc1
2.2	nt	CCOC(=O)CCC(=O)NCc1ccc2[nH]c(C)cc2c1
-1.0	nt	COCc1nc(-c2ccc(-c3ccc(OC)cc3)nc2OC)no1
0.6	nt	Cc1ccc(C2C(=O)N(C3CCC(C)CC3)CC(=O)N2C2CC2)cc1 (stereo unspecified)
7.7	i	CC1=NC(Nc2nc(C)c3ccccc3n2)=NC(C)(C)C1
-1.1	nt	CC(C)C(NC(=O)C1CCCCC1)C(=O)Nc1ccc2c(c1)OCCO2 (stereo unspecified)
-1.3	nt	CC1=C(C(=O)OCc2ccccc2)C(c2cccnc2)n2ncnc2N1 (stereo unspecified)
-0.6	nt	COc1ccc(OC)c(-c2cc(C(=O)N3CCCc4ccccc43)no2)c1
-0.6	nt	c1ccc(C2(c3ccccc3)OCC(Cn3cncn3)O2)cc1 (stereo unspecified)
-4.6	nt	CC(=O)c1cccc(NC(=O)c2cc(C)no2)c1
-0.1	nt	CCC(=O)N1CCc2cc(S(=O)(=O)CCC(=O)NCc3ccc4c(c3)OCO4)ccc21
0.6	nt	COc1ccccc1-n1c2c(cc(C(=O)N3CCC(C)CC3)c1=O)C(=O)CC(C)(C)C2
-4.0	i	CN(CC(=O)Nc1ccccc1Cl)C(=O)COC(=O)CNC(=O)c1ccc(Br)o1
-0.8	i	N#CCCN1CCN(S(=O)(=O)c2ccc(S(=O)(=O)NC3CCCC3)cc2)CC1
-0.1	nt	CCOc1ccc2nc(N3CCCCCC3)sc2c1
8.3	nt	CC(C)N(CCNC(=O)c1cn(C)c2ccc(S(=O)(=O)N(C)C)cc2c1=O)Cc1ccccc1
1.4	i	O=C(CN1CCN(c2ncccn2)CC1)Nc1ccccc1-n1cccc1
-0.8	nt	Cn1c(Cn2c(=O)sc3ccccc32)nnc1SCC(=O)N1CCN(c2ccccc2)CC1
0.3	nt	Cc1ccccc1CS(=O)(=O)Cc1ccc(C(=O)NCC2CCCO2)o1 (stereo unspecified)
-1.8	i	CC(=O)Nc1cccc(-c2nnc(-c3ccccc3)o2)c1
